Screening results from PubChem.
Vaccinia Venus = vaccinia inhibition (Venus reporter) | Vaccinia virus Venus reporter expression, fluorescence | Potency, µM (series often up to 36.5 µM), inactives show at the top dose activity change, negative = inhibition, usual class: inhibitors | actives 0.46% (n = 330,000) | AID 720580; active means well fitted inhibition curve with a large enough effect; inconclusive means small, poorly fitted or top-dose-only effect; inactive means no such curve, though single readings can be large or run the other way; tested in A549 cells; further: nearly all actives have a fitted effect of over 30% in size; inactives centre near -10
VACV mCherry inh = inhibitors of vaccinia virus infection (mCherry reporter signal) | Vaccinia virus mCherry reporter infection, fluorescence; about a quarter of the inactives have no number | Potency, µM (top dose mostly 36.5 µM), inactives show at the top dose activity change, negative = inhibition, hits mostly inhibitors | actives 0.63% (n = 310,000) | AID 720579; active = well fitted inhibition curve with a large enough effect; inconclusive = small, poorly fitted or top-dose-only effect; inactive = no such curve, though single readings can be large or run the other way; tested in A549 cells; further: nearly all actives have a fitted effect of over 35% in size; inactives centre near -10
An asterisk follows results filed as active; i = inactive; u = inconclusive; x = no result given; & = joins results of further samples. On the % scale 0 is the no-effect control and ±100 the full control effect; potency means the concentration at half of the fitted maximal effect. Not a hit list. About 0.88% of those tested had a hit in this group.

Sequence of screens: Vaccinia Venus	VACV mCherry inh
- O=C(NCCc1ccccc1Cl)c1cc2ccccn2n1
→ -11%	-12%
- Cc1ccc2oc(-c3ccc(C)c(NC(=O)/C=C/c4ccco4)c3)nc2c1
→ -9%	-3%
- O=C(NNC(=O)c1nn(-c2ccc(F)cc2)ccc1=O)c1ccc(Cl)cc1
→ 0%	i
- C=C(C)[C@@H]1C2C(=O)O[C@H]1[C@H]1OC(=O)[C@@]34OC3C[C@]2(O)[C@@]14C (some centres not stated)
→ -9%	i
- CCOC(=O)[C@H](CCc1ccccc1)N[C@@H](C)C(=O)N1CCC[C@H]1C(=O)O
→ -16%&-17%	i
- Cc1onc(-c2c(Cl)cccc2Cl)c1C(=O)Nc1ccc2c(c1)OCO2
→ -7%	i
- O=C(Nc1nnc(-c2ccc3c(c2)OCCO3)o1)c1ccc(Cc2ccccc2)cc1
→ -21%	-16%
- c1ccc(NCc2nnc3n2CCCCC3)cc1
→ 6%	u
- O=C(C1CCN(S(=O)(=O)c2cccc3nsnc23)CC1)N1CCN(c2ccccc2F)CC1
→ u	-1%
- CCC(=O)c1ccc(OCC(=O)NC2CCCC2)cc1
→ -5%	-7%
- COc1ccccc1NC(=S)N1CCc2cc(OC)c(OC)cc2C1
→ -5%	i
- O=[N+]([O-])c1ccccc1S(=O)NCc1c(Cl)cccc1Cl (configuration not stated)
→ -7%	i
- CCN(CC)S(=O)(=O)c1ccc(NC(=O)c2ccccn2)cc1
→ -9%	i
- CC(C)(C)NC(=O)C1Cc2ccccc2CN1S(=O)(=O)c1ccc(F)cc1 (configuration not stated)
→ -9%	-7%
- CCOc1ccc(N(CC(=O)NC2CCCC2)C(=O)CCCC(=O)Nc2ccccn2)cc1
→ -8%	i
- CCOC(=O)N1CCN(C(=O)CCC(=O)c2ccc(OCC)cc2)CC1
→ 2%	-10%
- CC(C)CNc1nc(N)c([N+](=O)[O-])c(NCC2CCCO2)n1 (configuration not stated)
→ -12%	-7%
- CCN(CC)C(=O)COc1ccc(C=O)cc1OC
→ -16%	-11%
- O=C(NCc1cccc(C(F)(F)F)c1)N1CCN(C(=O)c2ccccc2)CC1
→ -9%	-8%
- C[C@@H]1CN([C@H](C)CO)S(=O)(=O)c2ccc(-c3cccc(C(=O)N(C)C)c3)cc2O[C@H]1CN(C)C(=O)Nc1ccc(F)cc1
→ -5%	-13%
- N[C@@H](Cc1ccc(O)cc1)C(=O)NO
→ -7%	i
- CCNC(=O)C1(C)CCCN(C(=O)c2oc3ccccc3c2C)C1 (configuration not stated)
→ 3%	1%
- CC(C)(CO)NC(=O)CC1C(=O)NCCN1Cc1ccc(-c2ccccc2)cc1 (configuration not stated)
→ -19%	i
- C=CCOC(=O)C1CC=CCC1C(=O)Oc1ccc(F)cc1F (configuration not stated)
→ -3%	-11%
- Cc1cc(/C=N/NC(N)=O)c(C)n1C1CCCCC1
→ -15%	-16%
- CCC1CCCCN1S(=O)(=O)c1ccc2c(c1)CCN2C(C)=O (configuration not stated)
→ -10%	-3%
- CC(=O)c1cccc(NC(=O)CSc2ncc(C(=O)Nc3ccccc3)c(=O)n2C)c1
→ -9%	i
- COc1ccc(/C=C/c2nc3ccccc3c(=O)n2-c2cccc(C(F)(F)F)c2)cc1
→ -21%	-25%
- COc1ccc(/C=C/C(=O)NCCn2c(C)cc3ccccc32)cc1OC
→ -17%	-34%
- Cc1cccc(N(CC(=O)NCc2ccccc2)S(C)(=O)=O)c1C
→ -1%	-13%
- CN1CCN(S(=O)(=O)c2cnccc2N2CCN(c3cccc(Cl)c3)CC2)CC1
→ -29%	u
- CCOC(=O)C1CCN(C(=O)CCS(=O)(=O)c2ccc3c(c2)n(C)c(=O)c(=O)n3C)CC1
→ 5%	-3%
- Cn1cc(S(=O)(=O)N2CCOCC2)cc1C(=O)Nc1cccc(Cl)c1
→ 3%	3%
- CCCC(=O)Nc1ccc2c(c1)nc(CCN1CCCCC1)n2C
→ 10%	-7%
- CCC(=O)c1cc2c(cc1NC(=O)c1ccccc1)OCCO2
→ -5%	-25%
- CCOC(=O)N1CCC(=C(C#N)C(=O)Nc2cc(OC)ccc2OC)CC1
→ -8%	-10%
- COc1ccc(C(=O)Nc2nc3nccc(-c4ccccc4)n3n2)cc1
→ -14%	-14%
- COc1ccc(CCNC(=O)C(=O)NCC2OCCN2S(=O)(=O)c2cc(F)ccc2F)cc1OC (configuration not stated)
→ 2%	2%
- CC(C)CCN1CCN(Cc2nc(-c3ccccc3)cs2)CC1CCO (configuration not stated)
→ -11%	i
- O=C(Nc1nccs1)C1CCCN1S(=O)(=O)c1ccc(Cl)cc1 (configuration not stated)
→ -4%	-11%
- Cc1cnc(C(=O)OCC(=O)NCCCc2ccccc2)cn1
→ 6%	i
- O=C1CCC(C(=O)OCC(=O)Nc2cc(Cl)ccc2F)=NN1
→ 1%	-8%
- COc1ccc(-n2nc3c(c2NC(=O)c2ccco2)CS(=O)(=O)C3)cc1
→ -4%	i
- O=S(=O)(c1cccc(COc2ccc(Cl)cc2Cl)c1)N1CCOCC1
→ -11%	-15%
- N#CC(C#N)=Cc1ccc(N2CCCC2)cc1
→ 0%	-9%
- OCC(O)C(O)C(O)c1cnn(-c2ccccc2)n1 (configuration not stated)
→ -6%	-9%
- CCOc1cc(-c2noc(CCCC(=O)NC3CCCCC3)n2)ccc1OC
→ -1%	-8%
- Cc1ccsc1/C=N/n1cnc2sc(C)c(C)c2c1=O
→ -9%	x
- Cc1ccc(N(CC(=O)NC(C)(C)C)C(=O)CS(=O)CC(=O)Nc2ccc3c(c2)OCO3)cc1 (configuration not stated)
→ -7%	i
- Cc1ccc(S(=O)(=O)Nc2c(C)n(C)n(-c3ccccc3)c2=O)cc1C(=O)OC(C)C(=O)N(C)c1ccccc1 (configuration not stated)
→ -20%	-22%
- CC1CN(c2nc3c(c(=O)n(C)c(=O)n3C)n2Cc2c(Cl)cccc2Cl)CC(C)O1 (configuration not stated)
→ 0%	15%
- COc1ccccc1NC(=O)CSC1=Nc2ccccc2C2=NC(CC(=O)NCc3ccccc3)C(=O)N12 (configuration not stated)
→ -10%	i
- O=C(CCCc1c[nH]c2ccccc12)N[C@@H](Cc1c[nH]c2ccccc12)C(=O)O
→ -28%	-6%
- COc1cccc2cc(C(=O)c3ccccc3)oc12
→ -9%	i
- Nc1c(C(=O)Nc2ccc(Br)cc2)sc2nc(-c3ccncc3)ccc12
→ -8%	i
- CCCCNC(=O)Cn1c(SCc2cccc(Cl)c2)nc2ccncc21
→ -11%	17%
- CCn1c(SCC(=O)c2ccc(O)c(O)c2)nnc1-c1ccccc1OC
→ -15%	x
- CC(C)CCn1c(SCC#N)nc2c(sc3ccccc32)c1=O
→ -4%	-14%
- CCS(=O)(=O)N1CCC(C(=O)N2CCN(c3ccccc3)CC2)CC1
→ -5%	-10%
- O=C(NCc1ccccc1Cl)c1ccc2nc([C@@H]3O[C@H](CO)[C@@H](O)[C@H]3O)[nH]c2c1
→ 5%	3%

The results go on:
Sequence of screens: Vaccinia Venus	VACV mCherry inh
- Cc1cc(S(=O)(=O)N2CCOCC2)ccc1OCC(=O)N1CCOCC1
→ -4%	-15%
- CCCCN(C)CCNC(=O)Cn1ncc2c([nH]c3ccccc32)c1=O
→ -4%	-10%
- C/C(=N\NC(=O)Cc1ccc(Br)cc1)c1cccnc1
→ -10%	i
- Cc1ccc(CNC(=O)c2ccc(CS(=O)(=O)Cc3ccc(C)cc3)o2)cc1
→ -16%	i
- Cc1ccc(C(=O)C=Cc2cccc(C)c2)cc1
→ 0%	-14%
- O=C(Cc1ccc(NC(=O)C2CCCN(C(=O)C3CCC3)C2)cc1)Nc1cccc(C(=O)N2CCCC2)c1 (configuration not stated)
→ -6%	i
- O=C(O)C(Cc1c[nH]c2ccccc12)NS(=O)(=O)c1cccc2nsnc12 (configuration not stated)
→ -6%	-13%
- CN1CCN(c2ccc(NC(=S)NC(=O)/C=C/c3ccco3)cc2)CC1
→ u	-18%
- O=C(O)c1ccc(N/N=C/c2ccc(-c3ccccc3)cc2)cc1
→ u	u
- CCOC(=O)C1C(=O)C=C(c2ccc(NS(C)(=O)=O)cc2)CC1c1ccco1 (configuration not stated)
→ -17%	-24%
- CCCc1cc(=O)[nH]c(N2CCN(Cc3ccc4c(c3)OCO4)CC2)n1
→ -12%	-21%
- COc1ccc(-c2cc(C(C)=O)c(C)n2CCC(=O)Nc2ccc(C)cc2Cl)cc1
→ -9%	-13%
- CCCCn1c(=O)c(-[n+]2ccccc2)c([O-])c2ccccc21
→ 8%	x
- CN(C)c1nc(N/N=C\c2ccc(Cl)c([N+](=O)[O-])c2)nc(Nc2ccc(F)cc2)n1
→ -6%	-14%
- Nc1nc2c(nc(SCc3ccccc3Br)n2C2OC(CO)C(O)C2O)c(=O)[nH]1 (configuration not stated)
→ 1%	4%
- Fc1ccc(N/N=C2/CCSc3sccc32)c(F)c1
→ -9%	i
- O=C(CN1C(=O)c2ccccc2Sc2ncccc21)Nc1cccc(C(F)(F)F)c1
→ -9%	-12%
- O=C(Nc1ccc2nc3n(c(=O)c2c1)CCCC3)c1cccnc1Cl
→ -18%	i
- COc1ccc(OC)c(-c2nc(C(=O)NCCCN3CCOCC3)cc3c2[nH]c2ccccc23)c1
→ -2%	-10%
- COc1cc(C(=O)NC2CCN(Cc3nnnn3Cc3ccc(F)cc3)CC2)cc(OC)c1OC
→ -14%	i
- Cc1ccc(Sc2cnc(N)nc2C)cc1
→ -5%	-11%
- CCCCOC(=O)C1=C(N)OC2=C(C(=O)CC(C)(C)C2)[C@]12C(=O)N(C)c1ccccc12
→ 1%	x
- CC(C)(C)C(=O)Cn1c(=O)n(-c2ccccc2)c(=O)c2c3c(sc21)CCC3
→ -5%	-12%
- CCOC(=O)c1c(C)[nH]c(-c2csc(N)n2)c1C
→ -24%	u
- O=c1c2cccnc2n(-c2ccccc2)n1Cc1c(Cl)cccc1Cl
→ -10%	i
- O=c1c2oc3ccccc3c2[nH]c(=S)n1-c1ccccc1
→ -3%	-13%
- CCOC(=O)C1(CCc2ccccc2)CCN(C(=O)Cc2nonc2C)CC1
→ -10%	-15%
- Cc1cccc(OCc2n[nH]c(=S)n2C2CCCCC2)c1
→ -22%	u
- CCCC(NC(=O)c1ccccc1)c1nc2ccccc2n1Cc1ccc(C(=O)OC)o1 (configuration not stated)
→ -7%	x
- O=c1[nH]c(=O)n([C@H]2C[C@H](O)[C@@H](CO)O2)cc1C(F)(F)F
→ u	u

Arranged by count of non-hydrogen atoms (high to low): 6 of the compounds above.
Sequence of screens: Vaccinia Venus	VACV mCherry inh
- COc1ccc(-c2cc(C(C)=O)c(C)n2CCC(=O)Nc2ccc(C)cc2Cl)cc1
→ -9%	-13%
- CCOC(=O)C1C(=O)C=C(c2ccc(NS(C)(=O)=O)cc2)CC1c1ccco1 (configuration not stated)
→ -17%	-24%
- O=c1c2cccnc2n(-c2ccccc2)n1Cc1c(Cl)cccc1Cl
→ -10%	i
- CCCCn1c(=O)c(-[n+]2ccccc2)c([O-])c2ccccc21
→ 8%	x
- Cc1cccc(OCc2n[nH]c(=S)n2C2CCCCC2)c1
→ -22%	u
- O=c1[nH]c(=O)n([C@H]2C[C@H](O)[C@@H](CO)O2)cc1C(F)(F)F
→ u	u

The list goes on.
Sequence of screens: Vaccinia Venus	VACV mCherry inh
- S=C1Nc2ccccc2CS1
→ -8%	-5%
- CCC(Sc1nc2cc3c(cc2c(=O)n1CCCCCC(=O)NCc1ccc2c(c1)OCO2)OCO3)C(=O)NCCCOC (configuration not stated)
→ -6%	-8%
- CCn1cc(C(=O)NCCCN2CCCC(C)C2)c(=O)c2cc(S(=O)(=O)N3CCOCC3)ccc21 (configuration not stated)
→ -18%	-14%
- CCOC(=O)c1c(SCCN2CCCC2)n(-c2ccccc2)c(=S)n(-c2ccccc2)c1=O
→ -5%	-10%
- O=C(NC1CCCCC1)C1CCN(S(=O)(=O)c2cccc3cccnc23)CC1
→ -6%	17%
- Cc1ccc2nc(NC(=O)c3ccccn3)sc2c1
→ u	22µM*
- O=C(c1ccc(-n2cncn2)c([N+](=O)[O-])c1)N1CCN(S(=O)(=O)c2ccccc2F)CC1
→ 0%	i
- CCCNC(=S)Nc1ccc(S(N)(=O)=O)cc1
→ 2%	0%
- CCc1ccc(-c2cn3c(n2)sc2cc(C(=O)NC4CCCCCC4)ccc23)cc1
→ -15%	-16%
- CC(C)CNc1ncnc2c1ncn2[C@H]1CN(Cc2ccc(C(=O)O)cc2)C[C@@H](CO)O1
→ 5%	14%
- CC(C)c1ccc(NC(=S)NCCc2c[nH]c3ccccc23)cc1
→ -24%	-23%
- O=C1Nc2ccccc2N(O)N1c1cc(-c2ccccc2Cl)no1
→ -18%	0%
- CCC(C)c1ccccc1NC(=O)c1cc(C)no1 (configuration not stated)
→ -10%	-3%
- O=C(Nc1cccc2nsnc12)c1cccnc1
→ -5%	-17%
- N#CC(C#N)=Cc1cc(O)c(O)c(O)c1
→ -16%	-5%
- Cc1csc2nc(O)c(C(=O)NCc3ccc4c(c3)OCO4)c(=O)n12
→ -14%	-27%
- O=C(c1cc2ccccc2o1)N1CCN(c2cccc(C(F)(F)F)c2)CC1
→ -9%	-9%
- CCn1cc(/C=N\NC(=O)c2ccc3c(c2)c(C)c(C)n3Cc2ccccc2)c(C)n1
→ -7%	-19%

Compound profiles, as listed above. Order of values: Vaccinia Venus | VACV mCherry inh
Shown for O=C(Nc1cccc2nsnc12)c1cccnc1 → -5% | -17%
Shown for CCOC(=O)c1c(SCCN2CCCC2)n(-c2ccccc2)c(=S)n(-c2ccccc2)c1=O → -5% | -10%
